Vif TR-FRET = inhibitors of Vif binding to APOBEC3G peptide, primary screen, biochemical, TR-FRET, GST-Vif 1-94, biotin-A3G peptide, dose response retest (AID 1117319); Virion infectivity factor (Human immunodeficiency virus type 1 group M subtype B (isolate …; inhibition, %, or IC50 in µM where a hit was titrated; TR-FRET GST-Vif / biotin-A3G peptide binding; higher % means a stronger effect; test concentration not given here; strong numbers were not always called active; 0.57% of 260,000 active;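 active = above the screen mean plus three standard deviations and confirmed in dose response; inconclusive = results disagree or hit not tested in dose response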;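 also: Vif residues 1-94 fused to GST binding biotinylated APOBEC3G peptide 110-148; 0% = full assay without inhibitor and 100% = GST in place of GST-Vif; retest series ran down from 100 µM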
E coli growth = E. coli growth inhibition, primary screen, OD600. Escherichia coli growth, 23 h; active compounds read low. OD600 absorbance (concentration not given with the values). 0.21% of 330,000 active. AID 1053175, 2014;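 active = OD600 absorbance below the run mean of sample wells minus 3.6 SD, in any replicate, cut at about 0.56 in these data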;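 also: stock transfer was 300 nL into about 60 µL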
FGF22 binding = binders of human FGF22 protein, primary screen, FGF22 synaptogenesis inhibitor project, biophysical, thermal shift, single point; calls only at 9.99 µM; AID 651658, 2012; 1.5% of 340,000 active; recombinant FGF22 thermal shift, SYPRO orange fluorescence; percent of sucrose octasulfate shift, DMSO zero;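 active = melting point raised past a set limit in the mean and every replicate; inconclusive = no clear call; three in four hits are not shown here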
Target sequence (Q9HCT0 whole entry, looked up): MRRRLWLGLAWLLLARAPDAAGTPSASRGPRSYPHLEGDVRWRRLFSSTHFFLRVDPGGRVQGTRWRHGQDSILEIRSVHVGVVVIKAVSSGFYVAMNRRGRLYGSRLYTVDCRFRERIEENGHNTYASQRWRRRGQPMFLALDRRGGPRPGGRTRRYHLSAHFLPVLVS
rRNA inh HTS = reduced GFP signal of wild-type E. coli, primary screen, bacterial rRNA inhibitor project, GFP/RFP fluorescence, OD600, single point. E. coli WT GFP vs humanized-ribosome RFP mutants, 24 h; active compounds read low; DMSO median 0, no signal -100. GFP signal change (wild-type ribosome), % (concentration not given with the values). 1.6% of 350,000 active. AID 720706, 2013;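 active = significant combined selectivity score with lowered wild-type GFP, culture density cut under 30%, mutant RFP and density less affected; inactive = any of these conditions unmet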; also: one replicate is shown; some compounds called inactive have numbers as strong as hits
ALR H2O2 inh = inhibitors of human ALR sulfhydryl oxidase, primary screen, biochemical, H2O2 detection, HRP-luminol luminescence, single point; inhibition, % (no concentration beside the values); AID 485317, 2010; FAD-linked sulfhydryl oxidase ALR (Homo sapiens), P55789; purified ALR, DTT oxidation; 3.8% of 290,000 active;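 active = mean and each replicate at 75% or more; inconclusive = only one of the two met; inactive = neither met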;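 also: stock transfer was 7.5 nL into about 7.5 µL; 0% = neutral wells and 100% = wells with inactivated enzyme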
Target sequence (P55789 whole entry, looked up): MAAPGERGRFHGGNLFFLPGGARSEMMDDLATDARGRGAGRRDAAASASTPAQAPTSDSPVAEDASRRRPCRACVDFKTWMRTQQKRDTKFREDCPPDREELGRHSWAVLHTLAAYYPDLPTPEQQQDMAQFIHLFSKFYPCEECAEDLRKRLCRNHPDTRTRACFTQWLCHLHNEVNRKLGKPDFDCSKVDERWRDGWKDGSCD
HNF4A DNA FP = change in binding of human HNF4A to DNA, primary screen, biochemical, fluorescence polarization, FITC-DNA; Hepatocyte nuclear factor 4-alpha (Homo sapiens), P41235; 1 h; activity change, % at 10 µM; 0.3% of 360,000 active; in the data active = activity change above about 30%, passing the limit was not always enough;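 also: controls were the assay level and a saturating level of protein; the project sought stronger binding though the title names inhibitors; some compounds called inactive have numbers as strong as hits; positive values seem to mean higher polarization but the record does not say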
Target sequence (P41235 whole entry, looked up): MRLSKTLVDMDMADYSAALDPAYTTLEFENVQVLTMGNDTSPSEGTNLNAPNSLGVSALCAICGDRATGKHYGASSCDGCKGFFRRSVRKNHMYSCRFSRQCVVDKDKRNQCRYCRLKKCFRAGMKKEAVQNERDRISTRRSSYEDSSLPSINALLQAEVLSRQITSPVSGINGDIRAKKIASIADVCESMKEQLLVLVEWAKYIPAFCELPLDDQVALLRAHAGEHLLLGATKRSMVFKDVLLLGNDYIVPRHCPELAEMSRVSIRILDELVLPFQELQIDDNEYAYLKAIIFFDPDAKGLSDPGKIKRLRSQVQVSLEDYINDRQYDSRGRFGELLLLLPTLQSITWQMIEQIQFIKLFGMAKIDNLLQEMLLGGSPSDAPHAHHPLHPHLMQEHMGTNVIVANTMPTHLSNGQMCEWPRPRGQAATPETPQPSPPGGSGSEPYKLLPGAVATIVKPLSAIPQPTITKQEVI
AF4-AF9 inh = inhibitors of AF4 peptide binding to AF9, primary screen, biochemical, AlphaScreen, biotin-AF4 peptide, FLAG-AF9, single point | AID 651704, 2012 | inhibition, % at 10 µM | Protein AF-9 (Homo sapiens), P42568 | 0.47% of 350,000 active;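 active = every replicate reaching a set inhibition limit, whatever the replicate mean, cut at about 25% in these data; inconclusive = mean inhibition reaches that limit but some replicates miss it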;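 also: 0% = plate neutral control median and 100% = total signal loss; the record names both 10 and 1 µM as test concentration; the first replicate is given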
rRNA inh HTS OD600 = second read-out of rRNA inh HTS, no call of its own (marks repeat the call); OD600 change, %; measured here: OD600 growth;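 optical density of the mix in the first replicate; 0 = DMSO median and -100 = no signal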
rRNA inh HTS RFP = recorded beside rRNA inh HTS, whose call it bears; RFP signal change, %; measured here: RFP humanized mutant strains;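 first replicate; 0 = DMSO median and -100 = no signal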
Active calls of the source: *; i = inactive; ? = inconclusive; nt = not tested or not shown. Not all compounds are listed, so the mix of outcomes need not match the whole.

SMILES	Vif TR-FRET	E coli growth	FGF22 binding	rRNA inh HTS	rRNA inh HTS OD600	rRNA inh HTS RFP	ALR H2O2 inh	HNF4A DNA FP	AF4-AF9 inh
CCOC(=O)c1c(N)n[nH]c1-c1ccccc1	-1%	0.65	nt	nt	nt	nt	-1	-4.1	nt
C[C@H]1CCCCO[C@H](CN(C)C(=O)Nc2ccc3c(c2)OCO3)[C@@H](C)CN([C@@H](C)CO)C(=O)c2cc(NC(=O)C3CCCCC3)ccc2O1	nt	nt	i	-2	-1	3.1	nt	nt	3.6
CCCOc1cccc(C2C(C(=O)c3ccco3)=C(O)C(=O)N2CCCn2ccnc2)c1 (centres undefined)	-2%	0.73	i	5	13	-0.5	5	-3.3	0.7
CCNC(=O)C[C@@H]1C=C[C@H](NC(=O)C2CC2)[C@H](CO)O1	nt	nt	i	1	-1	0.1	nt	nt	-2.1
CCCS(=O)(=O)c1c(S(=O)(=O)CCC)c2cnccn2c1C(=O)c1ccc(OC)cc1	-4%	0.63	i	-8	-9	9.0	-7	0.0	-9.9
Cc1noc(C)c1NC(=O)Nc1ccc2c(c1)C(=O)N([C@H](C)CO)C[C@H](C)[C@H](CN(C)C(=O)Nc1ccc(F)cc1)OCCCC[C@@H](C)O2	nt	nt	i	6	3	0.9	nt	nt	-3.3
CC(C)(C)c1ccc(C(=O)OCC(=O)NC2CC2)cc1	nt	0.67	i	-2	-10	0.5	nt	-3.2	-0.4
O=c1[nH]c2ccc(NC(=S)Nc3ccc(F)cc3)cc2[nH]1	nt	0.72	i	8	0	-7.6	90*	0.6	2.4
CCOC(=O)C1CCN(S(=O)(=O)c2cc(Br)cc3c2N(C(C)=O)C(C)C3)CC1 (centres undefined)	2%	0.73	nt	nt	nt	nt	-21	2.6	nt
C[C@@H]1CCCCO[C@@H](CN(C)S(C)(=O)=O)[C@H](C)CN([C@@H](C)CO)C(=O)c2cc(NC(=O)CCCN(C)C)ccc2O1	nt	nt	i	-1	8	-2.1	nt	nt	-5.3
OC[C@@H]1[C@@H](c2ccc(-c3cccc(F)c3)cc2)[C@@H]2CN(CCC(F)(F)F)CCCCN12	nt	nt	i	-58	-72	-14	nt	nt	12
CCOC(=O)C1=C(C)N(C)C(=S)NC1c1cc(OC)ccc1OC (centres undefined)	29%	0.66	i	-7	-10	-1.4	-2	4.7	5.1
COc1ccccc1CNC(=O)Nc1nc(C(N)Cc2ccc(Cl)cc2)cs1 (centres undefined)	nt	nt	i	-61	-79	-21	nt	0.1	11
CCOC(=O)c1c(-c2ccc(OC)cc2)cn2ccccc12	4%	0.68	i	10	5	1.9	-2	0.2	-0.5
Cn1c2cc(Br)sc2c2cnn(Cc3c(F)cccc3Cl)c(=O)c21	nt	0.65	i	4	-11	12	nt	2.0	1.0
O=C(COC(=O)/C=C/C(=O)OCC(=O)Nc1ccccc1F)Nc1ccccc1F	-2%	0.71	i	11	5	0.1	nt	0.1	0.5
Cc1ccc(Nc2nc(N)c([N+](=O)[O-])c(N3CCOCC3)n2)cc1C	nt	0.62	i	-30	-31	-10	9	3.1	17
C[C@H]1CCC(=O)N([C@H](CSc2ccc(Br)cc2)Cc2ccccc2)CC1	nt	0.81	i	0	0	-1.4	22	0.7	-11
Cc1ccc(-n2c(-c3nn(C)cc3Cl)n[nH]c2=S)cc1	6%	0.67	nt	nt	nt	nt	58	-2.0	nt
S=c1[nH]nc(COc2ccccc2)n1/N=C/c1ccc(Cl)c(Cl)c1	-6%	nt	i	-1	1	-0.8	nt	-3.2	-3.2

Some of these compounds in order of number of heavy atoms, ascending.
SMILES	Vif TR-FRET	E coli growth	FGF22 binding	rRNA inh HTS	rRNA inh HTS OD600	rRNA inh HTS RFP	ALR H2O2 inh	HNF4A DNA FP	AF4-AF9 inh
CCNC(=O)C[C@@H]1C=C[C@H](NC(=O)C2CC2)[C@H](CO)O1	nt	nt	i	1	-1	0.1	nt	nt	-2.1
O=c1[nH]c2ccc(NC(=S)Nc3ccc(F)cc3)cc2[nH]1	nt	0.72	i	8	0	-7.6	90*	0.6	2.4
C[C@H]1CCC(=O)N([C@H](CSc2ccc(Br)cc2)Cc2ccccc2)CC1	nt	0.81	i	0	0	-1.4	22	0.7	-11
C[C@H]1CCCCO[C@H](CN(C)C(=O)Nc2ccc3c(c2)OCO3)[C@@H](C)CN([C@@H](C)CO)C(=O)c2cc(NC(=O)C3CCCCC3)ccc2O1	nt	nt	i	-2	-1	3.1	nt	nt	3.6

(more compounds)
SMILES	Vif TR-FRET	E coli growth	FGF22 binding	rRNA inh HTS	rRNA inh HTS OD600	rRNA inh HTS RFP	ALR H2O2 inh	HNF4A DNA FP	AF4-AF9 inh
CCc1ccc(NC(=O)CCc2c(C)nn(-c3ccc(N4CCOCC4)nn3)c2C)cc1	6%	0.69	i	-7	-11	-1.8	1	-2.3	-0.8
O=C(C[C@@H]1CC[C@@H]2[C@H](COC[C@@H](O)CN2C(=O)c2cnccn2)O1)NCc1ccc(Oc2ccccc2)cc1	nt	nt	i	4	1	-0.7	nt	nt	-0.1
C=COCCNC(=S)Nc1cccc(Cl)c1	-6%	0.7	i	-12	-5	-0.7	-13	-0.1	0.8
COc1ccccc1CNC(=O)C[C@H]1CC[C@H](NC(=O)CN(C)C)[C@@H](CO)O1	nt	nt	i	-1	-6	-2.7	nt	nt	-2.1
C=CCn1c(SCC(=O)Nc2ncc(Cc3cc(C(F)(F)F)ccc3Cl)s2)nnc1-c1ccncc1	0%	0.66	i	18	14	18	-6	0.1	2.0
CCOc1ccc(-c2cc(CCCC(=O)N3CCN(c4ccc(OC)cc4)CC3)no2)cc1	4%	0.66	i	-3	-7	1.1	-4	-1.6	-13
CCc1ccc2c(c1)NC(=O)C2(C)Cc1ccccc1C#N (centres undefined)	nt	nt	i	nt	nt	nt	nt	-4.3	-3.7
COc1ccc2c(C)cc(=O)sc2c1	-7%	nt	i	2	5	-3.6	nt	1.8	-3.8
Cc1csc(C(=O)O)c1-n1cccc1	-2%	0.66	nt	nt	nt	nt	nt	-7.5	nt
COc1c(OC2OC(C(=O)O)C(O)C(O)C2O)cc(O)c2c(=O)cc(-c3ccccc3)oc12 (centres undefined)	?	0.69	i	-12	-8	-10	30	0.4	0.7
C[C@@H]1CCCCO[C@@H](CN(C)C(=O)CCC(F)(F)F)[C@H](C)CN([C@@H](C)CO)C(=O)c2cc(N(C)C)ccc2O1	nt	nt	i	0	0	0.7	nt	nt	2.2
Cc1c(NC(=O)c2cnn3cccnc23)c(=O)n(-c2ccccc2)n1C	-3%	0.68	i	14	3	-0.1	6	0.0	7.3
COc1ccc(S(=O)(=O)N2CCC(C(=O)Nc3c(F)cccc3F)CC2)cc1	0%	0.77	i	-2	-11	0.8	-4	-1.2	3.7
CC(C)(C)OC(=O)N(Cc1ccccc1)Cc1ccccc1OCc1cccc(NC(=O)C2CCC2)c1	nt	nt	i	nt	nt	nt	nt	-1.1	-3.5
O=C(NC1CCN(Cc2ccccc2)CC1)C12CC3CC(CC(C3)C1)C2	0%	0.71	nt	nt	nt	nt	-4	0.1	nt
Cc1ccc(CNCCCn2cnc(C(=O)Nc3ccc(C)c(C)c3)n2)o1	-2%	nt	i	2	-1	12	nt	1.4	6.1
COc1ccc(OC)c2c1nc1n2CCS1	nt	0.68	nt	nt	nt	nt	-2	0.0	nt
O=C(NC1CCCC1)c1ccc(CSCc2ccccc2F)o1	1%	0.73	nt	nt	nt	nt	0	0.8	nt
CN(CC(=O)Nc1ccc(F)cc1)C(=O)c1ccc2ccccc2n1	-3%	0.67	i	8	7	0.1	nt	3.8	-20
O=C(Oc1c(CN2CCOCC2)cc(Cl)c2cccnc12)c1ccccc1	-9%	0.68	i	-48	-75	-21	-16	2.1	3.1
Cc1c(Cl)c([N+](=O)[O-])nn1CC(=O)NCc1cccs1	6%	0.67	i	7	9	-1.2	-27	3.4	-0.9
CC1CCN(C(=O)C2Cc3ccccc3CN2S(=O)(=O)c2ccc(F)cc2)CC1 (centres undefined)	1%	0.71	nt	nt	nt	nt	1	-3.4	nt
CCCC(=O)N1CCN(c2ccc(NC(=O)c3ccc([N+](=O)[O-])o3)cc2Cl)CC1	nt	0.68	i	-39*	-21*	-11*	nt	0.8	6.8
CC(=O)Nc1nc(-c2ccc3c(c2)OCO3)cs1	-8%	0.69	i	11	12	14	-4	6.4	-5.6
Cc1ccc2nc(-c3cccnc3)c(NC3CCCCC3)n2c1	nt	0.69	i	-11	6	4.9	9	-0.1	8.1
Cc1cc(Br)c(NC(=O)Cn2c([N+](=O)[O-])cnc2C)cc1C	8%	0.67	i	-13	-19	13	-6	3.0	-2.0
O=C(O)C1C2C=CC(C2)C1C(=O)NCc1ccc2c(c1)OCO2 (centres undefined)	-3%	0.67	i	11	3	-0.7	-1	5.9	-9.2
Cc1ccc(C(=O)NNC(=O)C2CCN(c3nc(C)cc(C)n3)CC2)cc1	18%	0.68	i	11	12	0.5	3	1.6	-7.5
Cc1cccc(C)c1NC(=O)c1cccc2c1-c1ccccc1C2=O	-7%	0.71	i	5	17	-0.3	-1	1.6	1.7
O=C(CSc1n[nH]c(=O)[nH]c1=O)Nc1ccccc1C(=O)c1ccccc1	26%	0.66	i	7	-1	-1.9	-2	2.9	-44
CCNC(=O)[C@@H]1[C@@H](CO)[C@@H]2Cn3c(ccc(-c4ccc(F)cc4)c3=O)[C@@H]2N1CC1CC1	nt	nt	i	0	-4	1.0	nt	nt	1.7
C[C@H](CO)N1C[C@H](C)[C@@H](CN(C)Cc2ccncc2)Oc2ccc(N(C)C)cc2CC1=O	nt	nt	i	-3	-4	-1.8	nt	nt	6.6
Fc1cc(F)c(NC(=S)N2CCOCC2)c(F)c1	3%	0.69	i	-4	-40	30	-2	-1.4	-0.4
O=C(C[C@H]1C=C[C@@H](NC(=O)Nc2ccc(F)cc2)[C@H](CO)O1)NCCN1CCCC1	nt	nt	i	3	0	1.7	nt	nt	6.3
CCCCC(CC)CNC(=O)c1ccc2c(c1)OCO2 (centres undefined)	-2%	0.66	nt	nt	nt	nt	-4	0.5	nt
COCC#Cc1cnc2c(c1)C(=O)N([C@H](C)CO)C[C@H](C)[C@@H](CN(C)C(=O)NC1CCCC1)O2	nt	nt	i	5	13	-1.8	nt	nt	-4.1
CCN(CC)C(=O)CC(c1ccccc1)c1ccco1 (centres undefined)	5%	0.68	nt	nt	nt	nt	34	0.2	nt
C[C@@H]1CN([C@@H](C)CO)C(=O)Cc2cc(NC(=O)CCC(F)(F)F)ccc2O[C@H]1CN(C)Cc1ccc(-c2ccccc2)cc1	nt	nt	i	-10	-32	16	nt	nt	3.8
Cc1ccc(C(=O)N2CCN(C)CC2)cc1[N+](=O)[O-]	nt	0.68	i	15	11	-0.1	0	2.6	-8.9
O=c1ccn(C2CCCO2)c(=O)[nH]1 (centres undefined)	-9%	nt	i	12	7	0.8	nt	2.9	-28
COc1ccc(NC(=O)CN(C)C(=O)C2=NN(c3ccccc3)C(=O)CC2)cc1	-7%	0.66	i	nt	nt	nt	-3	1.8	0.8
C[C@H]1Cn2cnc(C(=O)N(C)Cc3ccccc3)c2C(=O)N1	nt	nt	i	12	7	-1.0	nt	nt	-0.7
Cc1ccc(S(=O)(=O)Nc2c(NC3CCCCC3)c3ccccc3oc2=O)cc1	nt	0.71	i	4	14	4.1	29	2.9	-20
